NPR1 antag = blocks ANP-stimulated signaling of human Npr1 receptor. HEK293 hNpr1 GloSensor cGMP, ANP-stimulated luminescence. Potency, µM (titrated, usually from 46.3 µM), without a hit: at the highest dose activity change, negative = inhibition, most hits filed as inhibitors. hit rate 1.6% among 76,000. AID 1347048; active = well fitted inhibition curve with a large enough effect; inconclusive = small, poorly fitted or top-dose-only effect; inactive = no such curve, though single readings can be large or run the other way;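 note: nearly all actives have a fitted effect of over 60% in size; nearly all hits also lower the signal before the agonist is added; a reference antagonist and vehicle were the controls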
Target sequence (P16066 whole entry, looked up): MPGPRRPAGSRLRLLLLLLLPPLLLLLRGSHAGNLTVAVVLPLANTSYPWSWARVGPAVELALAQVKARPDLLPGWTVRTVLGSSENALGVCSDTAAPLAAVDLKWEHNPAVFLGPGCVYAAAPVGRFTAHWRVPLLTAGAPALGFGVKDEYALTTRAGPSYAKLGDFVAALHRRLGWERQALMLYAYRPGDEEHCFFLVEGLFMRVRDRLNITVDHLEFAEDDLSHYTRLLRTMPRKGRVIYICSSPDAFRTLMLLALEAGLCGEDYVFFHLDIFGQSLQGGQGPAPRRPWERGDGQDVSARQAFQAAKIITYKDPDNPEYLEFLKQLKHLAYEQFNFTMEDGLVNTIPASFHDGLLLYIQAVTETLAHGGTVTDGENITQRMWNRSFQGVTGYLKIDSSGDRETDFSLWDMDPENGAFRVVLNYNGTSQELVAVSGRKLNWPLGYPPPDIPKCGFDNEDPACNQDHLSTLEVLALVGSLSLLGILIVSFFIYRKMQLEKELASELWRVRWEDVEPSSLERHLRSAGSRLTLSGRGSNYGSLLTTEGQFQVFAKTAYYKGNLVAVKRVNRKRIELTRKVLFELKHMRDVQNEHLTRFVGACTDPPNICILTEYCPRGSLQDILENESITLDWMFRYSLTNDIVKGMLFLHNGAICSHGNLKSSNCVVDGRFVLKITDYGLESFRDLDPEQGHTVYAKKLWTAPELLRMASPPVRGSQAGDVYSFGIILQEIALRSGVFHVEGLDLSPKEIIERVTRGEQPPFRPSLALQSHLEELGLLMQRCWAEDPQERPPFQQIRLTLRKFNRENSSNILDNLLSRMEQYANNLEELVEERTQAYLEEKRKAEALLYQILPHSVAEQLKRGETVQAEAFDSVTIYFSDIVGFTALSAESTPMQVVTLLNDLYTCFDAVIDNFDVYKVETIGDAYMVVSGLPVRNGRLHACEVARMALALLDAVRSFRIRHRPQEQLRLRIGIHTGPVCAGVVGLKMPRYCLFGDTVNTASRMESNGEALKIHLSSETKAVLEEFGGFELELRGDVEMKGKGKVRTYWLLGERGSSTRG
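HEK293 cells stably expressing human Npr1 and cGMP GloSensor pGS-40F, loaded 2 h with 2% GloSensor reagent, given compound 30 min at room temperature. Luminescence read before and 20 min after 0.1 nM hNppA.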
* marks the source's active call; other numbers are inactive results; u = inconclusive; & = joins results of further samples; [ ] = dose if it differs, or a comment. % is set by controls: 0 for no effect and ±100 for the full control effect; potency is the fitted concentration of half-maximal effect. The list is partial; count on the stated rates, not on these rows.

SMILES	NPR1 antag
CCCN1CCN(C(=O)C2CCc3ncc(-c4ccc(F)cc4)n3C2)CC1 (stereo unspecified)	0%
CC(C)n1ccnc1CN1CCC(CNC(=O)C(C)(C)C)CC1	6%
COCCOCc1nc(C2CCCN2)no1 (stereo unspecified)	3%
Cc1ccc(CN2CCCN(Cc3ccncc3)C(c3ccccc3)CC(=O)NCC2)s1 (stereo unspecified)	-5%
CC(=O)c1ccc(NC(=O)O[C@@H]2CO[C@H]3[C@@H]2OC[C@@H]3NC(=S)NC2CCCCC2)cc1	-19%
COc1ccc(C(=O)N2CCC(n3cc(-c4nc(-c5ccccc5)no4)nn3)C2)cc1F (stereo unspecified)	u
CN1CCC(NC(=O)c2cccnc2OC2CCNCC2)CC1	0%
Cc1noc(C)c1-c1ncc2c(n1)OCCN(Cc1ccccc1)C2=O	-8%[70.6 µM]
Cc1noc(C)c1CC(=O)N1CCC2(CC1)CC(OCC1CC1)CCO2 (stereo unspecified)	-11%
CCS(=O)(=O)N(C1CC1)C1CCOC2(CCN(C(=O)CCCc3ccccc3)CC2)C1 (stereo unspecified)	-19%
COc1ccccc1-c1n[nH]c2c1CC(=O)N(CC1CC1)C2	-2%[70.6 µM]
O=c1c2nc(Nc3cccnc3)ccc2ncn1-c1ccccc1	1%[70.6 µM]
COCCNC(=O)C[C@@H]1O[C@H](CNCc2ccc(F)cc2)[C@@H](O)[C@H]1O	-1%[70.6 µM]
Cc1cc(C)cc(-c2[nH]nc3ncc(-c4ccsc4)nc23)c1	-13%[70.6 µM]
CNC(=O)[C@H]1C[C@H](Oc2ccccc2)CN1C(=O)c1ccc2ccccc2n1	1%
Cc1noc(C)c1Cc1ccc(C(=O)N2CCc3c(nc4cc(-c5ccccc5)[nH]n4c3=O)C2)o1	-21%
COc1cccc(-c2noc(CC3CCN(C(=O)c4cccc(F)c4)CC3)n2)c1	6.3µM*
CC(=O)N1CCC(C(=O)N2CCCC2c2nc(CCOCC3CCCC3)no2)CC1 (stereo unspecified)	6%
COc1cccc([S+](=O)([O-])N2CCC3(C2)C(=NC2CCCC2)NC(=O)N3c2cccnc2)c1 (stereo unspecified)	0%
CC(NC(=O)OCc1ccccc1)c1nc2cccnc2n1C1CC1 (stereo unspecified)	17%
O=C([C@@H]1C[C@H](Oc2ccccc2)CN1)N1CCOCC1	2%
COc1ccc(-c2nc(-c3c(C)noc3C)cc3cc(CO)oc23)cn1	2%[70.6 µM]
Cc1cc(CN(C)C(=O)c2cc(COc3ccc(F)cc3F)on2)n[nH]1	7%
Cc1ccccc1Oc1c(CCC(=O)N(C)C(C)C)c(C)nn1-c1ccccc1C	-24%
Cc1noc(C)c1C(=O)N1CCOc2ccc(CCC(=O)NCC3CC3)cc2C1	0%
O=C(NC1CCCc2c1cnn2-c1ccccn1)c1cn[nH]c1-n1cnnn1 (stereo unspecified)	-1%
CC(C)CN[C@@H]1C[C@H](CO)[C@@H](O)[C@H]1O	-12%[122 µM]
O=C(C[C@@H]1O[C@H](CNC(=O)Nc2ccccc2)[C@@H](O)[C@H]1O)NCCN1CCOCC1	2%[70.6 µM]
COc1ccc(-c2cc(C[C@H]3CNCC[C@H]3CC(=O)N3CCN(C(C)=O)CC3)no2)cc1	-7%
COc1ccc(CCNC(=O)C2Cn3cccc3C(=O)N2CC(C)C)cc1OC (stereo unspecified)	4%
COCCN1C(=O)CS(=O)(=O)C12CCN(C(=O)C1(c3ccccc3)CC1)CC2	2%
COc1ccc(Cl)cc1Nc1ncncc1-c1nc(-c2ccccc2)no1	-1%
Cc1ccc(CN(C)C2CCOc3ccccc32)cc1 (stereo unspecified)	0%[70.6 µM]
CN1CC[C@H](c2nnc(-c3ccccc3)o2)C1	-10%[70.6 µM]
Cc1ccnn1CCC(=O)N1CCOC(Cc2ccc(F)cc2)C1 (stereo unspecified)	4%
Cc1cc(C)cc(C2(CNC(=O)C3NCCc4[nH]cnc43)CCCC2)c1 (stereo unspecified)	0%
O=C1CO[C@H]2CN(C3CCC3)C[C@H]2N1Cc1ccc(F)cc1	10%[70.6 µM]
O=C(CCc1nnn2c1CN(C(=O)c1ccccc1)CC2)NC1CC1	0%
Cc1cccc(C(=O)N2CCC(C(NC(=O)CC(C)C)C(=O)N3CCCCC3)CC2)c1 (stereo unspecified)	-1%
Cc1cc(-c2nn(-c3ccccc3F)cc2CN2CCC(N(C)C)C2)c(C)s1 (stereo unspecified)	-1%
Cc1ccc(NC(=O)c2cc3c(N4CCSCC4)nc(C)cn3n2)c(C)c1	10%
CCn1nc(-c2ccc(OC)nc2)nc1N(C)C	5%
CCCN(Cc1nccn1C)C(=O)c1cn(Cc2ccc(F)cc2)nn1	0%
COCc1nc(C2CCCN(C(=O)Nc3cc(C)cc(C)c3)C2)no1 (stereo unspecified)	-18%
CN1C(=O)Cc2ccccc2C1C(=O)NCc1ccccc1 (stereo unspecified)	2%
CC(C)N1CCN(C(=O)C2N(C(C)C)C(=O)C23CCCC3)CC1 (stereo unspecified)	-1%
O=C(CCn1c2c(c3ccccc31)CCCC2)N1CCc2nc3cc[nH]n3c(=O)c2C1	-17%
CCN1c2cc(C(N)=O)ccc2C(=O)N2CCCCC21 (stereo unspecified)	-4%
COc1ccc2c(c1)c(CN1CCC3(CC1)CC(C(=O)N1CCOCC1)N(C)C3)cn2C (stereo unspecified)	0%
OC1CCOC2(CCN(Cc3cccc4[nH]ccc34)CC2)C1 (stereo unspecified)	-5%
O=C(Cn1nc2c(cc1=O)CCCCC2)NC1CCN(Cc2ccc(F)cc2)CC1	3%
CCn1cc(S(=O)(=O)NCCc2ncc(C)n2C2CCC2)cn1	1%
O=C(Cn1nc2c(cc1=O)CCCC2)NCCN1CCOCC1	3%
COc1ccc(CN2CCCCCNC(=O)CC2c2ccccc2)cc1Cn1ccnc1 (stereo unspecified)	-30%
CCc1ccc(CN2C[C@@H]3C(=O)N(CCN4CCc5ccccc5C4)C(=O)[C@@H]3C2)cc1	u
CC(C)CC(=O)N1[C@@H]2CC[C@H]1CC(NC(=O)c1ccc(F)cc1)C2 (stereo partly specified)	3%
CS(=O)(=O)N1CCOc2ccc(CCC(=O)NCCc3cccnc3)cc2C1	5%
Cn1cccc1C(=O)N1CCCCCNC(=O)[C@H]2C[C@H](C(=O)N3CCc4ccccc4C3)C[C@H]21	-12%
CC(C)C(=O)N1CCCCCCNC(=O)[C@@H]2C[C@@H](C(=O)N3CCN(c4ccccn4)CC3)C[C@@H]21	1%
COc1cccc(CN2Cc3nc(-c4cncnc4)ccc3OCC2=O)c1	-8%[70.6 µM]
Following part:
SMILES	NPR1 antag
COc1ccc(C(=O)N[C@@H]2CN(c3ccncn3)C[C@H]2CO)cc1	-8%
Cc1nc(-c2ccccc2)n(Cc2nc(-c3ccccc3)oc2C)c(=O)c1CCO	-30%
COc1ccccc1-n1nc(CC(N)=O)nc1Cn1cc(Cl)c(C)n1	-1%
CN1C(=O)c2cccn2CC1CNC(=O)c1cn[nH]c1-c1ccc(F)cc1 (stereo unspecified)	0%
CCNC(=O)N1CCCC(Cc2nc(C3CCOCC3)no2)C1 (stereo unspecified)	-1%
O=C1OCC2(CCN(Cc3ccc4c(c3)CCO4)C2)N1Cc1ccccc1 (stereo unspecified)	-10%[70.6 µM]
O=C(c1ccn[nH]1)N1CCN(Cc2cn3ccccc3n2)CC(O)C1 (stereo unspecified)	11%
CN(C)C(=O)c1cccnc1OC1CCN(C(=O)CC2CCCCC2)C1 (stereo unspecified)	1%
Cc1cccc(-n2nc(-c3c(C)nc4scc(CC(=O)N5CCCCC5)n4c3=O)cc2C)c1C	3%
COCc1nc(C2CC(N)C2)cc(N2CCC(c3[nH]ncc3C)CC2)n1 (stereo unspecified)	0%&0%
Cc1ccc(-c2cc3c(=O)n(CCNC(=O)Cc4cccc(F)c4)ccn3n2)cc1C	u
CCCOCCCNC(=O)c1c(C)noc1-c1ccc2c(c1)OCO2	-2%
COc1ccccc1-c1cc(NCc2ccncc2)c2onc(C)c2n1	0%[70.6 µM]
CC1(COc2cccnc2)COc2ccc(C(=O)NCCc3ccccc3)cc2N1 (stereo unspecified)	8.9µM*
O=C(Nc1cccc(Cl)c1)[C@@H]1C[C@H](c2ccc(F)cc2)N([S+](=O)([O-])C2CC2)C1	-12%[70.6 µM]
CCOc1ccc2c(n1)CCN(C(=O)CCC1CCCC1)C2	-5%
Cc1ccc(-c2nc(C(=O)N3CCN(c4ccc(C)cc4C)CC3)no2)cc1	0%
COc1ccc(C(=O)N[C@@H]2CN(C(=O)Nc3ccccc3)CCC[C@H]2O)cc1	-4%[70.6 µM]
O=C(COc1ccccc1)NC[C@H]1O[C@H](Cc2cc(-c3ccccc3)on2)CC[C@@H]1O	3%[70.6 µM]
CCCCc1ccc(-n2cc(CN3CCN(C(C)=O)CC(O)C3)cn2)cc1 (stereo unspecified)	-3%
O=C(NC[C@H]1Cn2c(-c3ccc4c(c3)OCCO4)cnc2CO1)Nc1ccccc1	u
CCC(=O)N1CCc2c(C(=O)NCCOC)cccc21	-1%
Cc1cnc(CCNC(=O)c2ccc(C#N)cc2)n1C1CCC1	1%
Fc1ccc(-c2ccc3ncc(Nc4ccc5c(c4)OCCO5)n3n2)cc1	1%[70.6 µM]
CN1CCc2nc(N3CCc4ccccc4C3)[nH]c(=O)c2CC1	1%
Cc1cc(C(=O)N2CCCn3nc(CCC(=O)O)cc3C2)c2c(C)noc2n1	-3%
COc1ccccc1-c1cc(-c2ccccc2OC)c2onc(C)c2n1	-2%[70.6 µM]
COc1ccccc1C1CCN(Cc2cn(-c3ccccc3)nn2)CC1	-28%
O=C(C[C@@H]1CCNC[C@@H]1Cc1cc(-c2ccccc2)on1)NCc1cccnc1	2%[70.6 µM]
O=C(c1ccco1)N1CCCC(CCc2cccc(F)c2)C1 (stereo unspecified)	6%
COCCOCC(=O)N1Cc2ccccc2OC2(CCN(C)CC2)C1	-2%
CCc1nc(-c2c3n(c(=O)n(CC(=O)NC4CCCCC4)c2=O)CCCCC3)no1	-8%
O=C(Cn1nc2c(cc1=O)CCCCC2)Nc1ccc(F)c(Cl)c1	0%
COCCNc1nc2cc(C(=O)N3CC[C@H](CO)[C@@H](O)C3)ccc2n1C	7%
Cc1cc(=O)n(CC(=O)Nc2ccc(N(C)C)cc2)c(-c2ccccc2)n1	-16%
Cc1cc(C(=O)N2CCC3(CC2)Nc2ccccc2NC3=O)c2ccccc2n1	-4%
Cn1nccc1C(=O)N1CCC2(CC1)OC(=O)N(Cc1ccccc1)C2(C)c1cccnc1 (stereo unspecified)	0%
CCNC(=O)N1CCCCCC1CN1CCOCC1 (stereo unspecified)	-1%
Clc1cccc(-c2noc(-c3nc(-c4ccncc4)no3)n2)c1	6%
COc1ccc(C(=O)N2C[C@@H]3C[C@H](C2)c2c(NC(=O)Nc4ccccc4OC)ccc(=O)n2C3)cc1	0%
CC(C)(C)CN1CC2(C1)C(=O)N(CCCN1CCCC1=O)C(=O)[C@@H]1C[C@@H](O)CN12	5%[70.6 µM]
Cc1ccc(C(=O)Nc2ccc3ncnc(N4CCCC4)c3c2)s1	2%
CCN1c2cc(C(=O)Nc3ccc(Cl)cc3)ccc2C(=O)N2CCCC21 (stereo unspecified)	0%
COc1ccc(CN2Cc3[nH]nc(-c4cncnc4)c3CC2=O)cc1	-17%[70.6 µM]
Cc1[nH]c(-c2ccccc2)nc1C(=O)N1CCCC[C@H](N(C)C)C1	1%
COc1ccc(C(=O)N2CCC(n3cc(-c4nc(C5CC5)no4)nn3)C2)cc1F (stereo unspecified)	u
C[C@@]1(O)CCN(C(=O)CCc2ccc(F)cc2)C[C@@H]1O	6%
Cc1noc([C@@H](C)NC(=O)c2cc(C)n(C)n2)c1C(=O)O	-2%[70.6 µM]
Cc1cc(CNC(=O)C2CCCN(C3CCN(CCc4ccccc4)CC3)C2)on1 (stereo unspecified)	2%
CCn1ncnc1CN1CCC2(CC1)CC(C(=O)O)N(C(C)=O)C2 (stereo unspecified)	0%
CCC[C@H]1CN(C(=O)c2cc(C(F)(F)F)ccc2Cl)C[C@@H]1N	7%
Cc1nc(C2CC(O)C2)cc(N2CCC(n3c(=O)[nH]c4ccccc43)CC2)n1 (stereo unspecified)	-1%
N#Cc1ccc(C(=O)N2CCC(Cc3nc(-c4cccnc4)n[nH]3)C2)cc1 (stereo unspecified)	7%

Gathered by group: those above with sulfur
SMILES	NPR1 antag
Cc1ccc(CN2CCCN(Cc3ccncc3)C(c3ccccc3)CC(=O)NCC2)s1 (stereo unspecified)	-5%
CC(=O)c1ccc(NC(=O)O[C@@H]2CO[C@H]3[C@@H]2OC[C@@H]3NC(=S)NC2CCCCC2)cc1	-19%
CCS(=O)(=O)N(C1CC1)C1CCOC2(CCN(C(=O)CCCc3ccccc3)CC2)C1 (stereo unspecified)	-19%
Cc1cc(C)cc(-c2[nH]nc3ncc(-c4ccsc4)nc23)c1	-13%[70.6 µM]
COc1cccc([S+](=O)([O-])N2CCC3(C2)C(=NC2CCCC2)NC(=O)N3c2cccnc2)c1 (stereo unspecified)	0%
COCCN1C(=O)CS(=O)(=O)C12CCN(C(=O)C1(c3ccccc3)CC1)CC2	2%
Cc1cc(-c2nn(-c3ccccc3F)cc2CN2CCC(N(C)C)C2)c(C)s1 (stereo unspecified)	-1%
Cc1ccc(NC(=O)c2cc3c(N4CCSCC4)nc(C)cn3n2)c(C)c1	10%
CCn1cc(S(=O)(=O)NCCc2ncc(C)n2C2CCC2)cn1	1%
CS(=O)(=O)N1CCOc2ccc(CCC(=O)NCCc3cccnc3)cc2C1	5%
Cc1cccc(-n2nc(-c3c(C)nc4scc(CC(=O)N5CCCCC5)n4c3=O)cc2C)c1C	3%
O=C(Nc1cccc(Cl)c1)[C@@H]1C[C@H](c2ccc(F)cc2)N([S+](=O)([O-])C2CC2)C1	-12%[70.6 µM]
Cc1ccc(C(=O)Nc2ccc3ncnc(N4CCCC4)c3c2)s1	2%
